CBX7 AlphaScr – inhibitors of human CBX7 binding to H3K27me3 peptide; AlphaScreen His6-CBX7 / biotin-H3K27me3 peptide binding; stronger effect = lower value; O95931; AID 1224903; hit rate 1.1% among 66,000; normalised signal (fraction of DMSO) (concentration not given with the values); in the data active means normalised signal below about 0.5;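 further: 100 nL library stock added to about 20 µL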
Target sequence (O95931 whole entry, looked up): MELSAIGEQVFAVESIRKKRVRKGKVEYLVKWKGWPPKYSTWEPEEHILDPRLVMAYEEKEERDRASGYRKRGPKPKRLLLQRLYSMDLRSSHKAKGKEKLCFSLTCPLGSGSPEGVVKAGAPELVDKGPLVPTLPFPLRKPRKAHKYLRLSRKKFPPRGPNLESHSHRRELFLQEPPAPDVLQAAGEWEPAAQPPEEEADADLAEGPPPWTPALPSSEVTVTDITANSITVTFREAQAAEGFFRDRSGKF
CBX7 AlphaScr z-score – also measured in CBX7 AlphaScr; calls as there; z-score; measured here: z-score of CBX7 signal; some inactives read as strong as hits; reference of the scale not given here;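 same signal on another scale; lower means less binding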
Starred values were filed as active, the others as inactive; & = joins results of further samples.

SMILES	CBX7 AlphaScr	CBX7 AlphaScr z-score
Cc1cc(C)cc(NC(=O)c2csc3c2CCCCC3)c1	1.15	4.88
O=C1CC(c2nc3ccccc3n2Cc2ccccc2Cl)CN1Cc1ccccc1 (configuration not stated)	0.767	-1.67
CCOC(=O)Nc1ccc2c(c1)N(C(=O)CCN1CCN(CCO)CC1)c1ccccc1CC2	0.691	-4.81
Cc1ccc2nc(SCC(=O)O)[nH]c2c1	1.02	0.447
CC(NC(=O)c1ccc2c(c1)N(Cc1ccc(F)cc1)CCS2)c1ccccc1 (configuration not stated)	0.897	-2.78
CCCN1Cc2cccc(C(=O)Nc3cc(OC)cc(OC)c3)c2C1=O	0.942	-0.747
Cc1ccc(-c2noc(CSc3nnnn3-c3ccccc3)n2)cc1	1.14	2.06
CCN1CCN(C(=O)c2cnn(-c3ccccc3)c2NC(=O)c2ccccc2C)CC1	1.07	0.695
CC1CCN(S(=O)(=O)c2ccc3nc(-c4cccnc4)cc(C(=O)NC4CC4)c3c2)CC1	1.02	0.56
CCOC(=O)c1cnc2c(OC)cccc2c1Nc1ccccc1OCC	1	0.0897

Look-ups from the results shown.
Cc1cc(C)cc(NC(=O)c2csc3c2CCCCC3)c1 in CBX7 AlphaScr is listed with 1.15
CC(NC(=O)c1ccc2c(c1)N(Cc1ccc(F)cc1)CCS2)c1ccccc1 (configuration not stated) in CBX7 AlphaScr z-score is listed with -2.78
CCOC(=O)c1cnc2c(OC)cccc2c1Nc1ccccc1OCC in CBX7 AlphaScr z-score is listed with 0.0897
Cc1ccc(-c2noc(CSc3nnnn3-c3ccccc3)n2)cc1 in CBX7 AlphaScr is listed with 1.14

(list continues)
SMILES	CBX7 AlphaScr	CBX7 AlphaScr z-score
Cc1cc(N2CCN(C)CC2)nc2ccc(NC(=O)CCC(=O)NCCC3=CCCCC3)cc12	1.03	0.0422
CC(C)N(Cc1nc(-c2ccc(Cl)cc2)no1)C(=O)c1ccc2c(c1)OCO2	0.957	-0.815
COc1cc(CN2CCN(Cc3cccc(Br)c3)CC2)cc(OC)c1OC	0.989	-0.267
COc1cc(Cl)c(C)cc1NC(=O)CCNC(=O)Cn1ccc2ccccc2c1=O	0.957	-0.958
COc1cc2c(C(=O)N3CCCCC3)cn(C)c(=O)c2cc1OC	0.991	-0.288
COc1cc(CN2CCN(Cc3ccc(Cl)cc3)CC2)cc(OC)c1OC	0.792	-2.5
CCNS(=O)(=O)c1cc(-c2nn(C)c(=O)c3ccccc23)ccc1C	0.961	-0.443
Cc1cc(C)c2oc(-c3ccc(C)c(NC(=O)c4ccccc4)c3)nc2c1	0.995	-0.18
COc1ccc(OC)c2c(N3CCOCC3)cc(C(F)(F)F)nc12	1.16	1.57
COc1ccc(-c2c(-c3ccc(OC)cc3O)n[nH]c2C)cc1	0.662	-1.58
CCC1Oc2ccccc2N(CC(=O)NCCC2=CCCCC2)C1=O (configuration not stated)	0.839	-1.75
CCN1CCN(c2cc(C)c3cc(NC(=O)c4cccc(F)c4)ccc3n2)CC1	0.969	-0.207
CCOP(=O)(OCC)c1nc(-c2ccc(Cl)cc2Cl)oc1NCc1ccccc1	0.723	-1.74
COc1cccc(-c2ncnn2-c2ccc(Cl)cc2)c1OC	0.919	-1.6
CCOc1ccc(NC(=O)C2CCC(CNS(=O)(=O)c3cccc4cccnc34)CC2)cc1 (configuration not stated)	0.993	-0.206
O=C(CCn1nc(-c2ccccc2)ccc1=O)NCc1ccc(F)cc1Cl	1.13	0.256
Brc1ccc(-c2nnc3ccc(N4CCCCC4)nn23)cc1	0.985	-0.28
Cc1ccc(-c2noc(COc3ccc(C)c(C)c3)n2)cc1	1.16	0.185
Cc1ccc2c(c1)N(CCC(=O)NC1CCCC1)C(=O)C(C)O2 (configuration not stated)	0.968	-0.813
O=C(NCCc1ccccc1)c1ccc2c(c1)ncn2-c1ccc(F)cc1F	0.995	-0.114
Cc1ccc2nc(N3CCN(c4ccccc4)CC3)nc(-c3ccccc3)c2c1	1.35	1.36
Cc1ccc2c(c1)C(c1ccc(F)cc1)N(C(=O)CCc1ccccc1)CC(=O)N2 (configuration not stated)	0.668	-3.17
O=C(Cn1cnc2c(nnn2Cc2ccc(F)cc2)c1=O)N1CCN(c2ccccc2)CC1	0.876	-2.03
CCOc1ccc(N(CC)C(=O)c2cn(CC)c(=O)c3cc(OC)c(OC)cc23)cc1	0.929	-0.3
Nc1ccc2nn(-c3ccc(Cl)cc3)nc2c1	1.15	4.47
Cc1ccc(C)c(Cc2c(C)nc3c(C(=O)NCCC4=CCCCC4)cnn3c2C)c1	0.963	-0.907
COc1ccc(-c2nn(C)c(=O)c3ccccc23)cc1NC(=O)c1ccccc1Cl	0.97	-1.06
COc1cc2nc(/C=C\c3cccc(C(F)(F)F)c3)n(-c3ccc(C)c(C)c3)c(=O)c2cc1OC	1.03	0.805
CC1(C)CC(=O)N(CC(=O)N2CCc3ccccc32)c2ccccc2S1(=O)=O	1.06	1.73
Cc1ccc(C(=O)Nc2ccc3oc(-c4cccnc4)nc3c2)cc1C	1.07	0.0895

Record cards, from the list above. Order of values: CBX7 AlphaScr, CBX7 AlphaScr z-score
Nc1ccc2nn(-c3ccc(Cl)cc3)nc2c1 as listed: 1.15, 4.47
CC1(C)CC(=O)N(CC(=O)N2CCc3ccccc32)c2ccccc2S1(=O)=O as listed: 1.06, 1.73

(listing goes on)
SMILES	CBX7 AlphaScr	CBX7 AlphaScr z-score
CCOC(=O)c1ccccc1NC(=O)c1nn(-c2ccccc2OC)c(=O)c2ccccc12	1.05	0.872
COc1ccccc1CNC(=O)CCn1nc(-c2ccc(C)cc2)ccc1=O	0.927	-2.19
Cc1ccc(-c2nnc(N3CCN(C(=O)Cn4c(=O)n(C)c5ccccc54)CC3)c3ccccc23)cc1	1	-0.019
CCOC(=O)c1cc(-c2ccccc2)n(-c2cccc(C(=O)Nc3cc(OC)ccc3OC)c2)c1C	0.818	-2.59
O=S1(=O)N=C(Nc2ccc(O)cc2)c2ccccc21	1.11	2.83
COc1cc(OC)c(NC(=O)Cn2nc(Cc3ccncc3)c3ccccc3c2=O)cc1Cl	1	0.0791
O=C(NCCCN1CCOCC1)c1nn2c(C(F)(F)F)cc(-c3ccc(F)cc3)nc2c1Cl	1.1	0.685
CC1CCCN(C(C(=O)Nc2ccc(C(C)C)cc2)c2ccc3c(c2)OCO3)C1 (configuration not stated)	0.931	-0.432
CCOC(=O)c1nc(Nc2cccc(C(=O)O)c2)c2ccccc2n1	0.53	-16.8
CCOC(=O)Cn1cnc2c(nnn2Cc2ccc(F)cc2)c1=O	0.943	-1.09
Cc1ccc(C(=O)N2CCCn3c2nc2ccccc23)cc1	1.03	0.686
CCOc1ccc2nc(N3CCC(C(=O)Nc4cc(C)on4)CC3)sc2c1	0.993	-0.0298
Cc1cccc(NC(=O)CSc2nnc(Cc3cc(=O)[nH]c(=O)[nH]3)n2-c2ccc(Cl)cc2)c1	1.02	0.434
CCN1CCN(C(=O)C2c3cc(OC)c(OC)cc3C(=O)N3CCc4ccccc4C23)CC1 (configuration not stated)	1.03	0.964
Fc1ccccc1N1CCN(c2nnc(Cc3cccnc3)c3ccccc23)CC1	0.927	-1.62
COc1ccc(C(=O)Nc2c3c(nn2-c2cccc(C)c2C)CS(=O)(=O)C3)cc1	0.972	-0.327
O=C(Nc1ccccc1O)c1cc(S(=O)(=O)N2CCCCCC2)ccc1Cl	0.883	-1.39
COc1ccc(OC)c(Nc2cc(C(=O)O)c3ccccc3n2)c1	0.963	-0.412
CCOc1ccccc1N(C)C(=O)c1cn(CC(C)C)c(=O)c2cc(OC)c(OC)cc12	1.07	0.714
CCc1ccc2c(c1)c(=O)c(S(=O)(=O)c1ccc(F)cc1)cn2CC(=O)Nc1cccc(OC)c1	0.919	-2.65
Cc1cc(C)cc(Nc2cc(C(=O)NCC3CCCO3)c3ccccc3n2)c1 (configuration not stated)	1.04	0.558
COc1ccc(C)cc1NC(=O)c1ccc(CNc2c(N3CCC(C)CC3)c(=O)c2=O)cc1	0.987	-0.544
COc1cccc(-n2c(/C=C/c3c(C)n(C)c4ccccc34)nc3ccccc3c2=O)c1	0.803	-2.14
COc1ccccc1CNC(=O)C1CCCN(S(=O)(=O)c2cnc[nH]2)C1 (configuration not stated)	1.06	2.75
O=C(NCCc1ccccc1)C(=O)Nc1cccc(Cl)c1Cl	1.09	4.04
CC(C)CCN(C)C1CCN(S(=O)(=O)c2ccc(F)cc2)CC1	0.831	-0.168
Cc1c2c(c(C)n1C)C(C(=O)NC1CCCCC1)N(Cc1ccccc1)C2=O (configuration not stated)	0.882	-1.36
COc1ccc(-n2nc(C(=O)Nc3cc(Cl)ccc3OC)c3ccccc3c2=O)c(OC)c1	0.945	-1.06
Cc1ccc2nc(-c3ccc(N4C(=O)CC(N5CC(C)CC(C)C5)C4=O)cc3)sc2c1 (configuration not stated)	1.12	1.29
CCC(=O)N1CCc2cc(S(=O)(=O)NCCC(=O)Nc3ccc(OC)cc3)ccc21	1.04	1.25
Cn1c(C(=O)N2CCC(C(=O)N3CCN(c4ccccn4)CC3)CC2)cc2sccc21	0.955	-0.805
CCOc1ccc2nc(N3CCCC(C(=O)N4CCN(c5ccc(OC)cc5)CC4)C3)sc2c1 (configuration not stated)	0.609	-11
O=C(Nc1nc(-c2cccc3ccccc23)cs1)c1ccc(F)cc1	0.955	-1.03
C=CCn1c(C2CC(=O)N(c3ccc(Br)cc3)C2)nc2ccccc21 (configuration not stated)	1.07	0.468
CC(C)OCCCNC(=O)c1ccc2nc(N3CCOCC3)sc2c1	1.2	1.89
COc1nnc(-c2ccc(N3CCOCC3)c(NC(=O)NC3CCCCC3)c2)c2ccccc12	0.899	-2.25
CCc1ccc(NC(=O)C2CCN(c3cc(C)nc4c(-c5ccc(Cl)cc5)c(C)nn34)CC2)cc1	1.02	0.992
Cc1ccc(Nc2nc(-c3c(C)nc4ccccn34)cs2)cc1	0.896	-2.06
COc1nc(-c2ccccc2)c2cc(Cl)ccc2n1	0.998	-0.0353
COc1ccc(-n2nc(C(=O)N3CCN(c4ccc(F)cc4)CC3)c3ccccc3c2=O)cc1	0.971	-0.835
CCc1ccc(-c2cn3c4ccccc4nc3n2CCO)cc1	0.777	-6.55
COc1ccc(OC)c(Nc2cc(C(=O)NCC3CCCO3)c3ccccc3n2)c1 (configuration not stated)	0.869	-2.05
O=C(Nc1nc(-c2ccc(Cl)cc2)cs1)c1cccnc1	1.02&1.08	0.191&0.236
Cc1cccc(N(C)S(=O)(=O)c2ccc3c(c2)CCN3C(=O)C2CC2)c1	1.05	1.34
CC1=Nc2cc(C(=O)NCCN3CCOCC3)ccc2Sc2ccc(Cl)cc21	0.922	-2.02
Cc1cccc(N2CCN(CCNC(=O)C3CCN(c4nc5ccccc5[nH]4)CC3)CC2)c1C	0.853	-1.7
O=C(Nc1nnc(Cc2ccccc2F)s1)c1ccc(F)cc1	1.02	0.552
CCc1ccc(Nc2cc(C(=O)NCCCOC)c3ccccc3n2)cc1	0.888	-1.75
COc1cc2c(cc1OC)C(c1c(F)cccc1F)NCC2 (configuration not stated)	1.01	0.127
COc1ccc(C)cc1NC(=O)C1(S(=O)(=O)c2ccc(Cl)cc2)CC1	0.784	-3.74

4 entries drawn at random from those above:
SMILES	CBX7 AlphaScr	CBX7 AlphaScr z-score
Cc1ccc2nc(SCC(=O)O)[nH]c2c1	1.02	0.447
CCc1ccc2c(c1)c(=O)c(S(=O)(=O)c1ccc(F)cc1)cn2CC(=O)Nc1cccc(OC)c1	0.919	-2.65
O=S1(=O)N=C(Nc2ccc(O)cc2)c2ccccc21	1.11	2.83
CCOC(=O)c1cnc2c(OC)cccc2c1Nc1ccccc1OCC	1	0.0897

(cont.)
SMILES	CBX7 AlphaScr	CBX7 AlphaScr z-score
Cc1ccc2cc(CCNC(=O)c3c(F)cccc3Cl)c(=O)[nH]c2c1C	1.07	1.42
COc1ccc(-c2cn3c(C)c(C(=O)NC(C)(C)C)sc3n2)cc1	0.905	-1.82
CC1(C)CCC(=O)C(C2(O)C(=O)Nc3ccccc32)O1 (configuration not stated)	1.23	2.33
Cc1ccc(NC(=O)c2nn3c(c2Cl)NC(c2cccs2)CC3C(F)(F)F)cc1C (configuration not stated)	0.995	-0.178
COc1ccccc1NC1c2ccccc2C(=O)N1Cc1ccccc1 (configuration not stated)	1.06	0.807
CCOC(=O)c1ccc(NC(=O)CC2C(=O)N(c3ccccc3)C(=O)N2Cc2cccs2)cc1 (configuration not stated)	1.03	1.09
CCOC(=O)c1cccc(NC(=O)CN(C)S(=O)(=O)c2ccc3c(c2)CCC(=O)N3)c1	0.999	-0.0294
CN(CC(=O)Nc1cccnc1)S(=O)(=O)c1cccc2cccnc12	0.831	-2.01
Cc1ccc(Cn2nc(C)c(NC(=O)c3onc(C)c3Cl)c2C)cc1	1.08	1.56
COc1cc(OC)c(NC(=O)c2cc3c(s2)-c2c(C)cccc2OC3)cc1Cl	1.07	2.29
CCN1C(=O)c2ccccc2Sc2ccc(C(=O)NCCCN3CCCCC3)cc21	0.991	-0.258
O=C(c1nn2c(c1Cl)NC(c1cccs1)CC2C(F)(F)F)N1CCc2ccccc2C1 (configuration not stated)	0.93	-1.73
CCC(C)NC(=O)C1CCC(=O)N(c2ccc(OC)cc2)C1c1ccc(F)cc1 (configuration not stated)	1.14	2.14
Cc1cc2c(cc1C)NC(CC(=O)Nc1ccc(F)cc1)C(=O)N2 (configuration not stated)	0.913	-2.32
Cc1ccc(-c2nc(Nc3ccc(C)c(Cl)c3)sc2CC(=O)O)cc1	0.851	-1.63
O=C(Nc1nc(-c2ccc(Br)cc2)cs1)c1ccc(S(=O)(=O)N2CCCC2)cc1	1.04	0.626

Assay outcomes from PubChem.

Not all compounds are listed (hit frequency here may not be typical).
